Rango release inh = prevents RanGTP from dissociating the Rango-importin beta complex. 340,000 tested, 0.071% active. Potency, µM (top dose mostly 46.1 µM), for inactives: at the top dose activity change, negative = inhibition. O95149+P62826. Biochemical FRET Rango-importin beta, RanGTP-induced dissociation; active means falling FRET ratio curve, often poorly fitted, with flat reads before Ran was added; inconclusive means other falling curves, or compound fluorescence or quenching; inactive means flat or rising ratio curve;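 also: potency is read from the fitted curve at half-maximal effect; % of control where 0% means no effect; nearly all actives have a fitted effect of over 45% in size; -100% = wells without RanGTP and RCC1; the record marks most hits as doubtful in a second field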
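Compounds preincubate 5 min with complex of recombinant Rango and importin beta in PBS with 1 mM DTT. Ran (0.6 uM) loaded with 2 mM GTP plus 0.2 uM RCC1 starts dissociation; FRET is recorded 45 min later.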
GLA inh pH 4.5 = alpha-galactosidase A (human) inhibition, pH 4.5; purified enzyme, 4-MU-alpha-Gal fluorescence, pH 4.5; AID 1467; 230,000 tested, under 10 active; activity change, negative = inhibition, % at 105 µM; inconclusive = small, poorly fitted or top-dose-only inhibition, or a rising curve; inactive = flat fitted curve, though single readings scatter; no compound was filed as active;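 also: 0% = full activity with enzyme and -100% = basal without enzyme; dose as in the result columns while the protocol names 77 µM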
Target sequence (P06280 whole entry, looked up): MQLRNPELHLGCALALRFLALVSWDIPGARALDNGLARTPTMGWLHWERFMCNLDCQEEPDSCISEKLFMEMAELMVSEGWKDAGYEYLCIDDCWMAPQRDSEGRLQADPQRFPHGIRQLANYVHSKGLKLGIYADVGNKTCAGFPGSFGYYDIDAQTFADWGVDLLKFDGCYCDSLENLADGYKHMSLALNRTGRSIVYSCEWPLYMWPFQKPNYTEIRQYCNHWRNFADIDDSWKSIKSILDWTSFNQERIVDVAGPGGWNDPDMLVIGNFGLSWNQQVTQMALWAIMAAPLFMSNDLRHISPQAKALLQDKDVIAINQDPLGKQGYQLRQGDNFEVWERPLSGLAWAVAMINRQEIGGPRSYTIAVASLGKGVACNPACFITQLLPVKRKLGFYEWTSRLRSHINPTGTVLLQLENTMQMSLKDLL
Rango-impB inh = prevents formation of the Rango-importin beta complex; Q14974; Rango CFP/YFP FRET sensor + importin beta, 45 min; AID 540263; 340,000 tested, 0.031% active; Potency, µM (doses to about 92.2 µM), for inactives: at the top dose inhibition of complex formation; active = rising FRET ratio curve, often small or poorly fitted; inconclusive = mostly compound fluorescence or quenching in the first reads; inactive = flat curves in all reads;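 also: potency is read from the fitted curve at half-maximal effect; 0% = DMSO wells and 100% = buffer wells lacking importin beta; nearly all actives have a fitted effect of over 15% in size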
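FRET biosensor Rango (snurportin 1 IBB between N-terminal EYFP and C-terminal Cerulean), 50 nM in PBS/1 mM DTT/0.02% Tween-20/0.1% BSA, preincubated 5 min RT with compound; 0.125 microM importin beta added, 45 min RT, CFP/YFP FRET ratio read.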
miR-21 FLuc = raises the signal of a miR-21 reporter; HeLa miR-21 FLuc reporter, luciferase, 48 h; Potency, µM (doses to about 38.3 µM), inactives show at the highest dose reporter change, positive = more light; 340,000 tested, under 10 active; AID 2288; active = well fitted rising curve with a large enough effect; inconclusive = small, poorly fitted or top-dose-only effect; inactive = no such curve, though single readings can be large or run the other way;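 also: % of control where 0% means no effect; miR-21 action dims this reporter so a rising signal means less miR-21 action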
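Luminescence from a firefly luciferase reporter carrying a miR-21 binding site downstream, stably expressed under a CMV promoter in HeLa cells that make miR-21 endogenously, reports miRNA modulation after 48 h compound exposure up to approximately 40uM final.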
* = called active by the depositor; [ ] = another dose, or the depositor's remark. Only part of the results is shown. The share of hits here may be higher or lower than overall.

Results for C=CCn1c(SCC(=O)Nc2cccc3ccccc23)nc(O)c(CC)c1=O ?
Rango release inh: 0.8%; GLA inh pH 4.5: -9.9; Rango-impB inh: -0.6%; miR-21 FLuc: 3.7%

What do the screens show for `CCOc1ccc(CC(=O)Nc2cc(=O)n(C)c(=O)n2C)cc1`?
Rango release inh: 15.0%; GLA inh pH 4.5: 0.5[21.1 µM]; Rango-impB inh: -7.7%; miR-21 FLuc: 4.2%

How did C=CCC1(CC=C)CCCN1C(=O)CC1C(=O)NCCN1Cc1ccccc1OC (stereo not drawn) do in these assays?
Rango release inh: -1.3%; GLA inh pH 4.5: inconclusive; Rango-impB inh: 0.7%; miR-21 FLuc: -0.3%

Results for O=C(NNc1cccc(Cl)n1)c1c(F)cccc1F ?
Rango release inh: 1.6%; GLA inh pH 4.5: 14.8; Rango-impB inh: -0.1%; miR-21 FLuc: -19.6%

How did COC(=O)[C@@]12CCCCN1[C@H](c1ccc(-c3cc(C(C)=O)cs3)c(OC)c1)[C@H]1C(=O)N(C)C(=O)[C@H]12 do in these assays?
Rango release inh: 6.8%; Rango-impB inh: inconclusive

Results for CCCCCCCC(=O)N/N=C(/C)c1c(O)cc(C)oc1=O ?
Rango release inh: -2.7%; GLA inh pH 4.5: -3.3; Rango-impB inh: 3.1%; miR-21 FLuc: 1.3%

What do the screens show for `COc1ccc(C(C)=O)cc1COC(=O)c1ccc(C)c(S(=O)(=O)N2CCOCC2)c1`?
Rango release inh: 2.7%; Rango-impB inh: -2.6%

How did CCOC(=O)CCNC(=O)CCc1nnc(CCCc2ccccc2)o1 do in these assays?
Rango release inh: 11.9%; Rango-impB inh: -4.2%; miR-21 FLuc: -34.1%

Results for COc1ccc(-c2nnc(SC(=O)N3c4ccccc4Sc4ccccc43)o2)cc1 ?
Rango release inh: -9.4%; GLA inh pH 4.5: 2.2; Rango-impB inh: 3.6%; miR-21 FLuc: -3.2%

Results for CCCCCCN1C=CC(=C2C(=O)c3ccccc3C2=O)C=C1 ?
Rango release inh: -5.5%; GLA inh pH 4.5: -9.5; Rango-impB inh: inconclusive; miR-21 FLuc: -28.2%

How did CCc1nnc(NC(=O)c2cccc(S(=O)(=O)N(C)c3ccc(OC)cc3)c2)s1 do in these assays?
Rango release inh: 11.9%; GLA inh pH 4.5: -3.5; Rango-impB inh: inconclusive; miR-21 FLuc: 7.0%

Results for COCCNC(=O)[C@@H]1CCCN1C(=O)C1CCN(S(=O)(=O)c2ccc(C)cc2)CC1 ?
Rango release inh: -9.1%; Rango-impB inh: 1.5%; miR-21 FLuc: -1.0%

Results for CSc1ccccc1NC(=O)c1cc(S(=O)(=O)N(C)C)ccc1N1CCCC1 ?
Rango release inh: 0.7%; Rango-impB inh: -4.8%; miR-21 FLuc: -0.5%

Results for O=C1c2ccccc2C(=O)N1Cc1nc(-c2ccncc2)no1 ?
Rango release inh: 7.2%; GLA inh pH 4.5: -4.7; Rango-impB inh: 3.8%; miR-21 FLuc: 0.7%

How did Cc1csc(NC(=O)c2ccc3c(=O)n4c(nc3c2)CCCCC4)n1 do in these assays?
Rango release inh: 4.6%; GLA inh pH 4.5: -2.4; Rango-impB inh: -3.0%; miR-21 FLuc: -17.3%

Results for CC(C)CCNC(=O)NC(=O)COC(=O)/C=C/c1cnc2ccccc2n1 ?
Rango release inh: -19.1%; GLA inh pH 4.5: 1.8; Rango-impB inh: 0.5%; miR-21 FLuc: -4.0%

What do the screens show for `COc1cc(C#Cc2ccc3cc(CCO)oc(=O)c3c2)cc(OC)c1`?
Rango release inh: -10.6%; Rango-impB inh: 1.4%

What do the screens show for `CC(=O)Nc1ccc2c(c1)C(=O)N(c1cccc3ccccc13)C2=O`?
Rango release inh: -5.1%; Rango-impB inh: inconclusive; miR-21 FLuc: -1.3%

Results for Oc1ccccc1-c1nnco1 ?
Rango release inh: 9.7%; Rango-impB inh: -0.8%

Results for O=C(CCC1CCCC1)NNC(=O)c1ccccc1O ?
Rango release inh: 0.1%; Rango-impB inh: 4.9%

How did CCN(CC)C(=O)C1CCCN(c2ccc([N+](=O)[O-])cc2/C=N/NC(=O)c2cccc(O)c2)C1 (stereo not drawn) do in these assays?
Rango release inh: -3.3%; GLA inh pH 4.5: -5.5; Rango-impB inh: 4.1%; miR-21 FLuc: 0.7%

What do the screens show for `COc1cc([N+](=O)[O-])ccc1NC(=O)CSc1nncn1-c1cccnc1`?
Rango release inh: 17.3%; Rango-impB inh: 0.6%; miR-21 FLuc: -1.2%

What do the screens show for `O=C(NCc1ccccc1)C12CC3CC(CC(Cl)(C3)C1)C2`?
Rango release inh: 8.7%; GLA inh pH 4.5: -2.6; Rango-impB inh: 3.0%; miR-21 FLuc: 0.3%

What do the screens show for `CCOc1ccc(CN(C)C(=O)CNC(=O)c2ccc(Br)o2)cc1OC`?
Rango release inh: 17.5%; Rango-impB inh: -4.3%; miR-21 FLuc: -4.7%

How did COc1ccc(-n2c(SC3CCOC3=O)nc3ccccc3c2=O)cc1Cl (stereo not drawn) do in these assays?
Rango release inh: -14.0%; GLA inh pH 4.5: 2.2; Rango-impB inh: -0.4%; miR-21 FLuc: -3.0%

How did O=C(NCc1cccnc1)C1CCN(S(=O)(=O)N2CCC3(CC2)OCCO3)CC1 do in these assays?
Rango release inh: -11.9%; GLA inh pH 4.5: 4.4; Rango-impB inh: 0.3%; miR-21 FLuc: -1.4%

What do the screens show for `O=C(NCC(=O)N1CCN(C(=O)c2ccco2)CC1)c1ccc(Br)cc1`?
Rango release inh: 1.8%; Rango-impB inh: -4.1%; miR-21 FLuc: -0.6%

How did CC1(C)CC(=O)C=C(NNC(=O)c2ccccc2)C1 do in these assays?
Rango release inh: -6.5%; GLA inh pH 4.5: 0.9; Rango-impB inh: -1.9%; miR-21 FLuc: -18.2%

How did CC(=O)Nc1ccc2c(c1)nc1n2CCOC1 do in these assays?
Rango release inh: -15.0%; GLA inh pH 4.5: -3.0; Rango-impB inh: 5.6%; miR-21 FLuc: -4.2%

Results for Cc1nc2ccc(C(=O)NCc3ccc4c(c3)OCO4)cc2s1 ?
Rango release inh: -15.8%; GLA inh pH 4.5: 7.1; Rango-impB inh: -0.7%; miR-21 FLuc: -19.8%

What do the screens show for `CC1CCCN(c2ccc(C(=O)OCC(=O)N3c4ccccc4Sc4ccccc43)cc2[N+](=O)[O-])C1` (stereo not drawn)?
Rango release inh: 10.2%; GLA inh pH 4.5: -8.7; Rango-impB inh: 4.8%; miR-21 FLuc: -0.3%

Results for Cc1c(O)ccc(C(=O)CN2CCN(Cc3ccc4c(c3)OCO4)CC2)c1O ?
Rango release inh: -3.5%; GLA inh pH 4.5: 3.5; Rango-impB inh: -0.4%; miR-21 FLuc: 10.9%

Results for CN1Cc2cccc3c2C(Cc2ccccc2S3)C1 (stereo not drawn) ?
Rango release inh: -14.4%; GLA inh pH 4.5: -17.6; Rango-impB inh: -1.0%; miR-21 FLuc: -0.7%

Results for CCC(CC)COC(=O)C1=C(C)NC(=O)NC1c1cc(OC)ccc1OC (stereo not drawn) ?
Rango release inh: -11.7%; Rango-impB inh: inconclusive; miR-21 FLuc: 8.9%

How did Cc1cccc(C(=O)Nc2ccc(NC(=O)Cc3ccc(Cl)cc3)cc2)c1 do in these assays?
Rango release inh: -7.8%; GLA inh pH 4.5: -1.1; Rango-impB inh: -2.1%; miR-21 FLuc: 3.0%

How did COc1ccc(Nc2ccc3nnc(-c4ccc(Br)cc4)n3n2)cc1 do in these assays?
GLA inh pH 4.5: -3.8; miR-21 FLuc: 0.9%

What do the screens show for `CCCCCCOc1ccc(-c2ccc(C#N)cn2)cc1`?
Rango release inh: 28.0%; GLA inh pH 4.5: -8.0; Rango-impB inh: 5.8%; miR-21 FLuc: -8.6%

How did COc1ccc(CNC(=O)CN2C(=O)NC3(CCCCCCC3)C2=O)cc1 do in these assays?
Rango release inh: -0.7%; Rango-impB inh: 0.5%

How did c1ccc(N2CCN(c3nc(-c4cccs4)nc4ccccc34)CC2)cc1 do in these assays?
Rango release inh: 5.0%; GLA inh pH 4.5: 2.7; Rango-impB inh: 1.1%; miR-21 FLuc: -5.3%

How did CCOC(=O)CSc1cc(C)nc2ccc(OC)cc12 do in these assays?
Rango release inh: 2.1%; GLA inh pH 4.5: -4.0; Rango-impB inh: -1.2%; miR-21 FLuc: 0.0%

Results for O=C(NCCC1=CCCCC1)c1coc(=O)c(Br)c1 ?
Rango release inh: -22.8%; GLA inh pH 4.5: -10.6; Rango-impB inh: -3.9%; miR-21 FLuc: 14.1%

Results for OC(CC1CC12c1ccccc1-c1ncccc12)(c1ccccc1)c1ccccc1 (stereo not drawn) ?
Rango release inh: -14.0%; GLA inh pH 4.5: -4.5; Rango-impB inh: -0.8%; miR-21 FLuc: 10.0%

How did CCNc1nc(Cl)nc(N(NC(C)=O)C(C)CC)n1 (stereo not drawn) do in these assays?
Rango release inh: 11.2%; GLA inh pH 4.5: 1.6; Rango-impB inh: -5.1%; miR-21 FLuc: 0.3%

Results for Cc1csc(=Nc2ccccc2)n1CCCN1CCCC1=O ?
Rango release inh: 5.3%; GLA inh pH 4.5: -5.3; Rango-impB inh: 1.3%; miR-21 FLuc: -10.3%

What do the screens show for `N#C/C(=N\Nc1ccc(S(=O)(=O)N2CCOCC2)cc1)C(N)=S`?
Rango release inh: -7.4%; GLA inh pH 4.5: -16.2; Rango-impB inh: -1.0%; miR-21 FLuc: 13.2%

What do the screens show for `CN(C(=O)COC(=O)c1cccc(S(=O)(=O)N2CCCCCC2)c1)C1CCS(=O)(=O)C1` (stereo not drawn)?
Rango release inh: 5.2%; Rango-impB inh: 3.5%

How did Cc1ccc(-c2nnn(CC(=O)N(CC(=O)NCC3CCCO3)c3ccccc3)n2)o1 (stereo not drawn) do in these assays?
Rango release inh: 0.2%; GLA inh pH 4.5: 8.4; Rango-impB inh: -0.8%; miR-21 FLuc: -13.0%

How did Cc1cc(NC(=O)CSC2=NS(=O)(=O)c3cc(F)ccc3N2)no1 do in these assays?
Rango release inh: -1.0%; Rango-impB inh: -1.0%

How did COc1ccc(-c2cc(C(F)(F)F)c3c(n2)sc2c(O)cc(=O)[nH]c23)c(OC)c1 do in these assays?
Rango release inh: inconclusive; GLA inh pH 4.5: -9.8; Rango-impB inh: inconclusive; miR-21 FLuc: -11.0%

Results for O=c1oc2ccccc2c(NCc2ccccc2F)c1[N+](=O)[O-] ?
Rango release inh: 0.2%; GLA inh pH 4.5: -7.8; Rango-impB inh: 5.9%; miR-21 FLuc: -9.7%

Results for CC1C=CCC2C(=O)N(c3ccc(OC(=O)c4ccco4)cc3)C(=O)C12 (stereo not drawn) ?
Rango release inh: -6.2%; GLA inh pH 4.5: 8.7; Rango-impB inh: 6.4%; miR-21 FLuc: 0.1%

How did COc1ccccc1OCCn1cc(C=O)c2ccccc21 do in these assays?
Rango release inh: 1.7%; Rango-impB inh: -0.7%; miR-21 FLuc: -2.7%

What do the screens show for `O=C(O)C1CCc2sc3[nH]c(=S)n(-c4ccccc4)c(=O)c3c21` (stereo not drawn)?
Rango release inh: -5.9%; GLA inh pH 4.5: 8.4; Rango-impB inh: 0.7%; miR-21 FLuc: 3.5%

How did Cn1nc([N+](=O)[O-])c(C(C#N)c2ccccn2)c(Cl)c1=O (stereo not drawn) do in these assays?
Rango release inh: -27.3%; GLA inh pH 4.5: -5.9; Rango-impB inh: -5.6%; miR-21 FLuc: 15.1%

What do the screens show for `COCC(=O)OCC(=O)Nc1cc(C)c(C)cc1[N+](=O)[O-]`?
Rango release inh: -0.2%; GLA inh pH 4.5: -0.7; Rango-impB inh: 5.4%; miR-21 FLuc: -11.6%

Results for Cc1cn([C@H]2C[C@H](O)[C@@H](CCC(=O)NC(c3ccccc3)c3ccccc3)O2)c(=O)[nH]c1=O ?
Rango release inh: -10.2%; Rango-impB inh: -4.6%

How did COc1ccc(CCNC(=O)CNCC2CCCO2)cc1OC (stereo not drawn) do in these assays?
Rango release inh: -10.8%; GLA inh pH 4.5: 0.8; Rango-impB inh: 5.8%; miR-21 FLuc: 1.0%
